Assay outcomes from PubChem BioAssay.
UUG fidelity: modulators of start codon recognition fidelity in yeast | S. cerevisiae UUG-firefly luciferase reporter, luminescence/redox ratio | activity score, % at 18.7 µM | 350,000 tested, 0.13% active | AID 602363;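 active = replicate mean at a twofold rise or more, about +100% in these data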;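 also: firefly luciferase made from a UUG start codon reports start codon fidelity; reporter light over untreated wells divided by growth signal over untreated wells; some hits fall short of that in this replicate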
HIV Env fusion: HIV envelope-mediated fusion inhibition | 360,000 tested, 1.1% active | HeLa-JRFL Env/CEM21 cell fusion, luciferase | inhibition, % at 12.3 µM | AID 651610;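 active = mean replicate inhibition score of at least 50 and every replicate individually at or above 50; inconclusive = only one of the two criteria met; inactive = mean below 50 and not all replicates reaching 50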;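 also: 0% = plate neutral controls and 100% = maraviroc near 300 nM; one replicate is shown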
CSC inhib: blocks cancer stem cells; 300,000 tested, 1.1% active; inhibition, % at 7.5 µM; cancer stem cell-like cells viability, luminescence; AID 2717;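 active = mean at 75% or more and at least half the replicates too; inconclusive = mean and replicates disagree; tested in HMLE shEcad cells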;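 also: 0% = median of negative and 100% = median of positive control wells; the first replicate is given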
PABP FP inh: PABP-poly(A) binding inhibition | 290,000 tested, 1% active | inhibition, % at 35 µM | PABP-poly(A) RNA binding, fluorescence polarization | P11940;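 active = 50% or more with normal probe brightness, or confirmed in later tests; inconclusive = above 50% with abnormal brightness, or retests that disagree; inactive = below 50% or failed in later tests; about a fifth of its hits are not listed in these tables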;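 also: calls also rest on retests at 20 µM and on dose response follow-up; controls were probe without protein and protein plus probe with vehicle; some compounds called inactive have numbers as strong as hits; many hits fall short of the cut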
Target sequence (P11940 whole entry, looked up): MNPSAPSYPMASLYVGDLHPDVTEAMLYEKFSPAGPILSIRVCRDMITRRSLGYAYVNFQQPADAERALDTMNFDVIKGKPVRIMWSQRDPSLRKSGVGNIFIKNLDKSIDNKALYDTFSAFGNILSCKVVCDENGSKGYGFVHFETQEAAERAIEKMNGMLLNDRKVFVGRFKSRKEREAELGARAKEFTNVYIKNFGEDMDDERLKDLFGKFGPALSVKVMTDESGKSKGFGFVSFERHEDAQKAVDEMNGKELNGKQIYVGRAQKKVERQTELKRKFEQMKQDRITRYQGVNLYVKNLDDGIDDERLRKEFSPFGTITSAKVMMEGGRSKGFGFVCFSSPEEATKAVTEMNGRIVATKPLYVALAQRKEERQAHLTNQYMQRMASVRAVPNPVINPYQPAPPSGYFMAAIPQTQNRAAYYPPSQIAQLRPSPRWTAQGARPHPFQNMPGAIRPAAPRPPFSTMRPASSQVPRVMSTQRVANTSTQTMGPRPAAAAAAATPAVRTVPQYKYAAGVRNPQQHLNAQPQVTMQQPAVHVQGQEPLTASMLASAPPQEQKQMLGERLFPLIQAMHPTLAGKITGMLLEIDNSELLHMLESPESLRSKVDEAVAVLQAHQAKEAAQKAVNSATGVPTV
Rce1 inhib: inhibitors of yeast Ras-converting enzyme. Q03530. yeast membranes, quenched prenylated peptide cleavage fluorescence. calls only. 290,000 tested, 0.27% active;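 active = fall in fluorescence gain of 50% or more versus controls, with final raw signal at or below 3038400; inconclusive = same 50% fall but final raw signal above 3038400; inactive = fall in fluorescence gain under 50%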;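 also: plate controls were neutral control wells for no effect and wells lacking membranes for full effect; tested at 10 µM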
Target sequence (Q03530 whole entry, looked up): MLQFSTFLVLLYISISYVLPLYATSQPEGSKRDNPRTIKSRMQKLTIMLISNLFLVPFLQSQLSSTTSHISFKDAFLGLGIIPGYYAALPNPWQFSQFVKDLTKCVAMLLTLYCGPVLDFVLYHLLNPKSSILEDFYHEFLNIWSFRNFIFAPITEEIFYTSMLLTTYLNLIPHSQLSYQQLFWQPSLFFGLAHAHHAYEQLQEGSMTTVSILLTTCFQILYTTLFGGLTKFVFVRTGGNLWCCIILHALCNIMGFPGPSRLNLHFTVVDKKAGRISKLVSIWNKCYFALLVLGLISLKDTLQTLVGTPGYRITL
eIF4H inh: inhibitors of RNA binding by human eIF4H; Q15056; eIF4H fluorescence polarization binding assay; inhibition, % at 35 µM; 290,000 tested, 0.94% active;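 active = 50% or more with normal probe brightness, or confirmed in later tests; inconclusive = above 50% with abnormal brightness, or retests that disagree; inactive = below 50% or failed in later tests; about a fifth of its hits are not listed in these tables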;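 also: calls also rest on retests at 20 µM and on dose response follow-up; 0% = protein and probe with vehicle and 100% = probe without protein; strong numbers were not always called active; many hits fall short of the cut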
MT1-MMP act inh: blocks activation of human MT1-MMP | 360,000 tested, 0.061% active | P50281 | HT1080 RFP-PRO-GFP cells, GFP/RFP ratio fluorescence, overnight; percent of plate control window, DMSO zero | GFP/RFP ratio change, % at 20 µM | AID 651647;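 active = GFP/RFP ratio change of at least 30% with cell ATP level not reduced by more than half and red fluorescence within 50% of control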; also: strong numbers were not always called active
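Material – HT1080 RFP-PRO-GFP cells · Control set – DMSO wells and RFP-L50D-GFP cells · Incubation – overnight cell settling, then overnight compound exposure, 37 °C, 5% CO2 · Compound dosing – single-point 20 µM compound, 1% DMSO · Read-out – GFP/RFP fluorescence ratio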
eIF4H inh retest: further read-out of eIF4H inh, marked with its call; inhibition, %; compound at 20 µM; confirmation average;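 mean of two retest wells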
PABP FP inh retest: also measured in PABP FP inh; calls as there; inhibition, %; compound at 20 µM; confirmation repeats;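 mean of two retest wells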
MT1-MMP act inh RFP: recorded beside MT1-MMP act inh, whose call it bears; RFP signal change, %; measured here: RFP expression control read;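 0 = vehicle wells; hits needed this value within 50% of zero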
Numbers without * were called inactive; i = inactive; ? = inconclusive; . = no result given; & = joins results of further samples.

The first two compounds, ahead of the listing:
SMILES	UUG fidelity	HIV Env fusion	CSC inhib	PABP FP inh	Rce1 inhib	eIF4H inh	MT1-MMP act inh	MT1-MMP act inh RFP	others
COc1ccc(CNC(=O)CN2CCC(NC(=O)c3ccccc3C)CC2)cc1	-21	-11	-3	6	i	2	0	-1
O=C(NCCc1ccncc1)c1ccc2nc(Cc3cccc(Cl)c3)oc2c1	-11	7	-8	4	i	-5	-1	-1

Main list, from the first entry:
SMILES	UUG fidelity	HIV Env fusion	CSC inhib	PABP FP inh	Rce1 inhib	eIF4H inh	MT1-MMP act inh	MT1-MMP act inh RFP	others
COc1ccc(CNC(=O)CN2CCC(NC(=O)c3ccccc3C)CC2)cc1	-21	-11	-3	6	i	2	0	-1
O=C(NCCc1ccncc1)c1ccc2nc(Cc3cccc(Cl)c3)oc2c1	-11	7	-8	4	i	-5	-1	-1
COc1ccc(S(=O)(=O)N2CCN(c3ccc4nnc(-c5ccc(F)cc5)n4n3)CC2)cc1	-8	5	1	-16	i	-3	2	-6
Cc1cccc(C(=O)NCC(c2ccco2)N(C)C)c1 (stereo not drawn)	-24	-2	-10	-7	i	0	1	3
COc1ccc(N=C2NC(=O)/C(=C\C=C\c3ccccc3)S2)cc1	-19	-16	10	8	i	-7	-1	-5
O=c1c([N+](=O)[O-])cc(C(F)(F)F)cn1Cc1c(Cl)cccc1Cl	-8	-176	-13	4	i	5	3	-2
COc1ccc(N2CCN(Cc3nc(-c4ccccc4)no3)CC2)cc1	.	11	-4	3	i	-3	1	3
CC(C)c1ccc(NC(=O)c2ccccc2NC(=O)C2CC=CCC2C(=O)O)cc1 (stereo not drawn)	14	-28	-7	0	i	2	-6	0
O=C(Nc1ccc([N+](=O)[O-])cc1)C1C(c2ccccc2)=C1c1ccccc1	.	.	4	-3	i	2	-2	-4
CN(C)c1ccc2c(O)cc(=O)n(C)c2c1	7	-44	-11	49	i	15	-6	7
CCOC(=O)c1cnn(-c2nc3c(C)cccc3s2)c1C	-9	.	2	2	i	-8	-12	5
C/C(=N\Nc1ccc(S(N)(=O)=O)cc1[N+](=O)[O-])c1ccco1	-21	-11	9	-4	i	-2	14	3
Cc1ccc(NC2=NCC(=O)N2CCc2ccccc2)cc1C	-20	.	-10	-4	i	-2	1	-2
O=C(NNC(=O)c1cnccc1C(F)(F)F)c1ccccc1	-10	6	-9	-8	i	-8	1	4
CCOc1ncccc1C(=O)OCC(=O)NC(=O)NC(C)C	.	9	-6	-1	i	-3	1	1
CCCCNC(=O)C1CCCN1C(=O)Nc1cccc(OC)c1 (stereo not drawn)	.	-6	6	8	i	8	-1	-2
Clc1ccccc1CSc1nc2ccncc2[nH]1	-51	-6	5	5	i	0	-2	-5
COc1ccc(OC)c(-n2c(SCC(=O)NCC3CCCO3)nc3ccccc3c2=O)c1 (stereo not drawn)	-9	.	-4	.	.	.	-2	1
Cc1cccc(NC(=O)C(C)SCc2nc3sc(C)c(C)c3c(=O)[nH]2)n1 (stereo not drawn)	-3	-10	-3	13	i	12	-14	-2
COc1cccc2c1cc1c(=O)n(CC(=O)N3CCCC3)nc(C)n12	-3	-14	.	.	.	.	0	2
CCOc1ccc(NC(=O)COC(=O)COc2cccc3c2OC(C)(C)C3)cc1	-1	.	0	-5	i	-12	0	1
COc1ccc(CCNC(=O)NC(C(F)(F)F)C(F)(F)F)cc1OC	16	.	-6	3	i	1	2	3
COC(=O)c1c(NC(C)=O)sc2c1CCN(Cc1ccccc1)C2	-10	6	10	-7	i	-5	1	0
COCCNC(=O)c1cc2sccc2n1C	.	-1	-13	-3	i	-10	0	3
CN(Cc1ccc(F)cc1)C(=O)CNC(=O)c1cccs1	-9	-4	-12	.	.	.	-1	1
CC1CC(C)CN(C(=O)COC(=O)c2cccc([N+](=O)[O-])c2)C1 (stereo not drawn)	-23	8	-10	-8	i	-1	-1	2
O=C(N/N=C/c1ccccc1)c1ccc(N2CCOCC2)c([N+](=O)[O-])c1	.	-3	11	-8	i	-9	1	4
COc1ccc(NC(=O)CN2CCN(c3ccccc3F)CC2)cc1	21	.	-7	4	i	0	-3	1
C[C@@H]1CN([C@@H](C)CO)C(=O)CCCn2cc(nn2)CO[C@H]1CN(C)S(=O)(=O)c1ccc(Oc2ccccc2)nc1	2	-97	.	.	.	.	1	7
CN1CCN(C(=O)C2(NC(=O)Nc3cccc(F)c3)CCCCC2)CC1	-22	-295	-3	18	i	-2	2	5
Cn1c(Cc2csc(N)n2)nnc1SC/C=C/c1ccccc1	-17	.	-7	4	i	1	-1	1
CC1=NNC(=O)C1CCC(=O)N/N=C/c1ccco1 (stereo not drawn)	-26	7	-23	-11	i	-6	9	4
CN1CCN(c2nc3ccccn3c(=O)c2/C=C(\C#N)S(=O)(=O)c2ccccc2)CC1	.	-32	-11	4	i	-7	0	3
N#Cc1ccc(CSc2nnc(NC(=O)c3ccc(=O)[nH]c3)s2)cc1	-9	10	-5	5	i	-8	1	-1
CCOC(=O)c1c(NC(=O)CN2CCN(C(=O)C3CCCO3)CC2)sc(C)c1C (stereo not drawn)	-20	6	13	-3	i	-2	-4	-2
Cc1ccc(N=C2CSC(=O)N2)cc1	-12	-13	-2	3	i	-11	1	5
Nc1cccc2c3c(oc12)CCCC3	0	2	1	-2	i	-7	-3	3
CCOc1ccc(NS(=O)(=O)c2ccc3ncsc3c2)cc1	.	-7	-3	2	i	1	1	1
CCN(CC)S(=O)(=O)c1ccc(Nc2cc(C)nc3ncnn23)cc1	-16	.	-15	-6	i	-8	6	5
CCn1c(SCC(=O)OC)nnc1-c1c[nH]c2ccccc12	.	-48	-13	-8	.	6	0	-1
Cc1ccccc1NC(=O)CSc1nc(-c2ccccc2)cc(=O)[nH]1	-16	3	-1	8	i	-1	-1	2
O=C(N/N=C/c1cc2cc3c(cc2nc1Cl)OCO3)c1ccncc1	.	4	-2	-7	i	-3	3	8
CCOC(=S)SCc1cn2cccc(C)c2n1	.	-32	-4	127	i	56	2	4	eIF4H inh retest=0;PABP FP inh retest=3
Cn1nnc(NC(=S)NC(=O)c2cccs2)n1	-21	-2	5	73	i	-2	3	7	eIF4H inh retest=21;PABP FP inh retest=21
COc1ccc(S(=O)(=O)NCC2CCCO2)cc1Cl (stereo not drawn)	-20	-1	-12	9	.	7	-2	2
Cc1cc(C(=O)NP(=O)(N2CCOCC2)N2CCOCC2)c(C)n1-c1ccc(N(C)C)cc1	.	1	7	-4	i	0	0	2
Cc1ccc(S(=O)(=O)N2C[C@H]3C(=O)C[C@@H](c4ccccc4)N(S(=O)(=O)c4ccc(C)cc4)[C@H]3C[C@H]2c2ccccc2F)cc1	-9	-20	.	.	.	.	-6	-6
Cc1cc(C)c(OCC(=O)N(Cc2ccccc2)C2CCS(=O)(=O)C2)c(C)c1 (stereo not drawn)	-15	5	-15	6	i	-9	1	0
COC(=O)c1sc(NC(=S)NC(=O)c2ccccc2Cl)nc1C	.	-19	2	18	i	11	5	5
COc1ccc(-n2nc(C(=O)NCC(=O)N3CCCCCC3)c3ccccc3c2=O)cc1	4	-13	-28	-4	i	1	1	2
O=c1[nH]c(N2CCN(c3ccccc3)CC2)nc2c1CCCC2	.	.	2	-11	i	-11	0	0
COc1ccc(C(C)(O)c2nc(-c3ccoc3)cs2)cc1 (stereo not drawn)	-20	-9	.	.	.	.	-7	-4
CCCc1nc2sc3ccccc3c(=O)c2c(=O)n1Cc1ccccc1	-6	36	.	.	.	.	5	1
CCN1CCN(CC(=O)c2cc(Cl)ccc2Cl)CC1	.	-4	-5	-15	i	1	0	2
CCN(c1ccc(NC(=O)COC(=O)c2ccc(S(=O)(=O)N3CCCC3)cc2)cc1)C(C)C	1	-46	-4	17	i	3	4	10
COc1ccc(CNC(=O)CN(Cc2ccccc2OC)C(=O)c2csnn2)cc1	-7	-5	.	14	i	5	-2	3
c1ccc(-c2cnc(C3CCCCC3)o2)cc1	-11	-6	.	.	.	.	0	0
NC(CO)c1csc(NC(=O)Nc2cccc(Cl)c2)n1 (stereo not drawn)	-17	-6	.	.	.	.	2	4
CCCCCC(=O)N1CCN(CCN=CC2=C(O)CC(c3ccc(OC)c(OC)c3)CC2=O)CC1 (stereo not drawn)	-15	-2	0	-6	i	2	1&1	1&2
O=C(NCc1ccccn1)C(=O)Nc1cccc2ccccc12	.	-12	-12	2	i	-2	3	3
The list goes on.
SMILES	UUG fidelity	HIV Env fusion	CSC inhib	PABP FP inh	Rce1 inhib	eIF4H inh	MT1-MMP act inh	MT1-MMP act inh RFP	others
Cc1cc(NC(=O)COc2ccc(F)c(Cl)c2)no1	-23	65*	-10	9	i	-10	1	0
CC1(C)CC(=O)C(CS(=O)(=O)c2ccccc2)=C(Cl)C1	4	7	-8	4	i	5	-3	2
Cc1cc(C(=O)NN=C2CCCC2)c2ccccc2n1	-20	.	20	.	i	.	1	2
CCn1c(COc2ccccc2C)nnc1SCC(=O)N1CCCCC1	-5	6	5	13	i	8	5	3
Cc1nc2ccc(NC(=O)C3CCN(S(=O)(=O)c4cccs4)CC3)cc2s1	-2	25	0	6	i	-14	-4	-8
Cc1cc(C)n2nc(C(=O)Nc3ccc(N4CCOCC4)cc3)nc2n1	9	-3	-1	27	i	-2	2	7
O=[N+]([O-])C(/C=C(\Cl)[N+](=O)[O-])=C1N(Cc2ccc(Cl)nc2)CCN1Cc1ccc(Cl)nc1	.	-46	4	36*	i	?	17	3	PABP FP inh retest=57*
COc1cccc(CNC(=O)CN2C(=O)CSc3ccc(S(=O)(=O)N4CCCCC4)cc32)c1	-15	5	-17	.	i	.	-2	-1
Cc1ccc(S(=O)(=O)Nc2ccc(S(=O)(=O)N3CCOCC3)cc2)cc1	5	-2	12	-4	i	-3	1	3
CC(C)c1ccc(NC(=O)c2cc(S(=O)(=O)N3CCCC3)c[nH]2)cc1	10	31	3	-12	i	-2	-1	-13
Cc1ccccc1NC(=O)CCOc1ccccc1	-9	-9	-4	2	i	-6	-1	0
Cc1c(C)c2cc(Cl)c(O)c(CN3CCN(C)CC3)c2oc1=O	2	-91	-2	14	.	3	8	7
O=C(Nc1ccc(F)cc1)C1CCCN(S(=O)(=O)c2cccc3cccnc23)C1 (stereo not drawn)	-18	-12	6	-4	i	-6	7	-13
CCN(CC)C(=O)[C@H]1C[C@H](CC(=O)NCC23CC4CC(CC(C4)C2)C3)C(=O)N2CCc3c([nH]c4ccc(Cl)cc34)[C@]12C	-22	65*	.	.	.	.	-14	-19
CC(C)OC(=O)N(C)C[C@H]1OCc2cnnn2CCCC(=O)N([C@H](C)CO)C[C@@H]1C	-7&-6	-35	.	.	.	.	2	-2
Cc1ccc(C(=O)NCCCNCCCN(C)C)cn1	-10	2	.	59*	i	68*	0	5
CCOC(=O)C1CCN(S(=O)(=O)c2ccc(-n3cnnn3)c(C)c2)CC1	-20	.	0	6	i	2	-1	-3
CCOc1ccc(C(=O)NNC(=O)c2cc(C)oc2C)cc1	.	0	5	.	i	.	-2	5
CC1=CC(C)(C)N(C(=O)c2ccccc2)c2ccc(C)cc21	2	94*	.	-4	i	4	-25	-14
Cc1nn(-c2ccc(N3CCOCC3)nn2)c(C)c1CCC(=O)Nc1ccccc1	-9	-4	-6	.	i	.	-3	-1
CN1CCC(N(C)CC(C)(C)NS(=O)(=O)c2ccccc2)CC1	-16	-9	36	11	i	-19	-4	-3

An excerpt, so the mix of outcomes need not match the whole.
